HTT prom inh: HTT promoter inhibition; HEK293 HTT promoter firefly luciferase reporter (activity 0% = vehicle and -100% = no light), 24 h; Potency, µM (series often up to 57.5 µM), without a hit: at the top dose activity change, negative = inhibition, actives largely listed as inhibitors; actives 0.93% (n = 48,000); AID 1508623; active means well fitted inhibition curve with a large enough effect; inconclusive means small, poorly fitted or top-dose-only effect; inactive means no such curve, though single readings can be large or run the other way; further: nearly all actives have a fitted effect of over 50% in size
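Quantitative HTS used concentration series of up to 57.5 uM final on HEK293 luciferase reporter cells, 24 h at 37 degrees C. Readout was Dual-Glo firefly luminescence.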
PMP22 txn prim: PMP22 gene transcription modulation; S16 Pmp22-F2sN Schwann cells (luciferase reporters placed in the Pmp22 gene), FLuc/NLuc coincidence luminescence, 24 h; Potency, µM (doses to about 57.5 µM), for the others: at the top dose activity change, negative = inhibition, most hits filed as inhibitors; actives 2% (n = 43,000); active = clear falling dose curves in both reporters; inconclusive = both reporters move, but less clearly or upward; inactive = either reporter flat; the % is the NLuc reporter signal; further: on the % scale 0 is the no-effect control and ±100 the full control effect; some results filed as inactive show a strong effect at the top dose
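Transcriptional readout in edited S16(c9) cells: two luciferases reported from the Pmp22 locus, measured in turn after 24 h compound incubation.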
Active calls of the source: *; ? = inconclusive; · = not tested or not shown; [ ] = dose if it differs, or a comment. Potency means the concentration at half of the fitted maximal effect.

SMILES	HTT prom inh	PMP22 txn prim
CCOC(=O)Cn1c(=O)c2c(nc3n2CCN3c2ccc(CC)cc2)n(C)c1=O	-3%	-1%
COc1ccc(NC(=O)c2cnc(N3CCCC3)nc2)cc1OC	-13%	-6%
COC(=O)C1CCN(c2csc3ccc(C)cc3c2=O)CC1	15%	?
Cn1nnnc1SCCNCc1ccc(F)cc1	-8%	24%
CC(C)C(=O)Nc1nnc(S(=O)(=O)N2CCCCCC2)s1	-5%	-3%
COc1ccc(-c2onc(C)c2C)cc1S(=O)(=O)N1c2ccccc2CC1C (stereo not drawn)	-14%	?
COc1ccc(Nc2c3c(nc4ccccc24)CCC3)cc1Cl	?	10µM*
CC(C)(C)c1ccc(C(=O)Nc2ccc(OCc3cc(=O)n4ccsc4n3)cc2)cc1	-9%	-17%
COc1cccc(C2C(C(=O)Nc3ccccc3OC)=C(C)Nc3nc4ccccc4n32)c1 (stereo not drawn)	?	?
O=C(C1CCN(c2nc3ccccc3[nH]2)CC1)N1CCN(c2ccccc2)CC1	-7%	?
CC1CCN(S(=O)(=O)N2CCC(C(=O)NCc3ccccc3Cl)CC2)CC1	?	-13%
Cc1ccc(-n2c3c(c(=O)[nH]c2=O)C(NC(=O)c2ccccc2F)(C(F)(F)F)C(=O)N3)cc1C (stereo not drawn)	-4%	-118%
Cc1ccc(CN2CCN(C3CCN(S(=O)(=O)N(C)C)CC3)C(=O)C2=O)cc1	-11%	-1%
Cc1ccc(NC(=O)c2cc(-c3cccs3)on2)cc1C	63%[activator]	-6%
CCOc1ccccc1NC(=O)CN1C(=O)COc2ccc(S(=O)(=O)N3CCOCC3)cc21	-2%	-9%
CNC(=O)c1ccccc1Sc1ccc2c(C=Cc3ccccn3)n[nH]c2c1	-13%	·
COc1cc(OC)cc(-c2nc3nc(C)c(CCC(=O)Nc4cc(F)ccc4F)c(C)n3n2)c1	-16%	?
COc1ccc(CNC(=O)CSc2n[nH]c(-c3ccc(OC)cc3)n2)cc1	?	?
Fc1ccccc1-n1ncc2c1ncn1nc(COc3ccc(Cl)cc3)nc21	-9%	-23%
CCOC(=O)c1c(S(=O)(=O)N2CCC(C(=O)Nc3ccc(C)cn3)CC2)c(C)n(C)c1C	?	-3%
CCn1c(=O)cc(OCC(=O)N2CCN(c3ccc(F)cc3)CC2)c2ccccc21	-6%	-29%
COc1ccccc1NC(=O)N1CCOc2ccccc21	-4%	13%
CCOc1ccc(C(=O)Nc2cc(-c3nc4ccccc4s3)ccc2OC)cc1	-36%	?
COc1ccc(N(CC(=O)NCCc2ccc(Cl)cc2)S(=O)(=O)c2c(C)nn(C)c2C)cc1	-24%	-28%
CN(C(=O)CSc1nc(-c2ccccc2)no1)c1ccc(F)cc1	13%	-18%
CNC(=O)C1CCN(c2nc3ccccc3nc2C(F)(F)F)CC1	-20%	?
COC(=O)c1cc2occc2n1CC(=O)Nc1cccc(SC)c1	-18%	-13%
O=C(CSc1nc(-c2ccc(F)cc2)[nH]c1-c1ccccc1)Nc1ccccc1	?	12%
CCOc1ccc(C(=O)NCCc2csc(-c3cccc(F)c3)n2)cc1OCC	-36%	-5%
Cc1ccc(C(=O)COC(=O)c2cccc(NC(=O)c3ccc(Br)cc3)c2)cc1	?	-22%
COc1ccc(OC)c(N(CC(=O)NCc2ccccc2)S(=O)(=O)c2ccccc2)c1	-17%	-14%
Cc1ccc(C(=O)c2cn(Cc3ccccc3)c3ccccc3c2=O)cc1	-13%	?
Cc1ccc(-c2[nH]c3ccccc3c2SCCNC(=O)c2ccc(S(=O)(=O)N(C)C)cc2)cc1	?	?
CC(=O)c1ccc(N2CCN(C(=O)C3CCCN(S(=O)(=O)c4ccc(Br)s4)C3)CC2)cc1 (stereo not drawn)	0%	?
CCOC(=O)c1cnn(-c2cccc(Cl)c2)c1C1CCN(C(=O)OC(C)(C)C)CC1	-7%	?
COc1ccc2c(c1)CC(C(=O)NCCCN1CCN(c3ccccc3F)CC1)CO2 (stereo not drawn)	-24%	?
Cc1ccc(NC(=O)c2nnn(Cc3cccc(C(F)(F)F)c3)c2N)c(C)c1	-27%	6µM*
COc1ccc(-n2nnnc2C2CCN(S(=O)(=O)c3ccc(C)cc3)CC2)cc1	?	-6%
COc1ccc(NC(=O)C2COc3ccccc3C2)cc1Cl (stereo not drawn)	-13%	-28%
Cc1cc(C)cc(OCC(=O)N2CCC(c3nc4ccccc4s3)CC2)c1	-10%	-11%
CCOC(=O)C1CCCN(C(=O)Cn2c(=O)cc(C)c3c(C)nn(C)c32)C1 (stereo not drawn)	?	?
O=C(Nc1nnc(S(=O)(=O)N2CCCc3ccccc32)s1)c1cccc(F)c1	?	-52%
COc1cc(NC(=O)NC(C)c2c(-n3cccc3)sc3c2CCCC3)cc(OC)c1OC (stereo not drawn)	?	?
CCOCCCNC(=O)C1CCN(c2nn3cc(-c4ccc(F)cc4)nc3s2)CC1	-10%	5%
COc1ccccc1CNC(=O)C(C)n1c(=O)cc(C(F)(F)F)c2c(C)nn(C)c21 (stereo not drawn)	21%	-38%
COc1ccc(-c2nc(SCC(=O)Nc3ccc4c(c3)OCCO4)c(-c3ccccc3)[nH]2)cc1	?	?
Cc1ccc(-c2nc(S(=O)(=O)c3ccc(C)cc3)c(SCC(=O)c3ccccc3)o2)cc1	-22%	-32%
Cc1cc2nc(-c3ccc(OCc4ccccc4C)cc3)cc(C(F)(F)F)n2n1	1%	3%
CCOC(=O)N1CCc2c(sc3c2c(=O)n(-c2ccc(CC)cc2)c(=O)n3C)C1	2%	2%
CCOc1ccc(C2Nc3ccccc3-c3nnc(SCc4ccccc4)nc3O2)cc1OC (stereo not drawn)	-9%	8%
CC(=O)c1ccc(-n2c(CCC(=O)O)ccc2-c2cccs2)cc1	-1%	-5%
CCCCn1c(-c2ccc(S(=O)(=O)N3CCOCC3)cc2)csc1=Nc1ccccc1	?	-18%
OCCCc1ccccc1	-4%	·
Cc1cc(C)n2nc(CNS(=O)(=O)c3ccc(Cl)cc3)nc2n1	4%	-6%
COc1ccc(-n2c(-c3ccco3)nc3c(cnn3-c3ccccc3C)c2=O)cc1	-16%	-28%
CO/N=C(\C(=O)N[C@@H]1C(=O)N2C(C(=O)O)=C(CSc3nc(=O)c(O)nn3C)CS[C@H]12)c1csc(N)n1	11%	·
CCc1c2c(nc3ccc(O)cc13)-c1cc3c(c(=O)n1C2)COC(=O)[C@]3(O)CC	?	·
Cc1c(C(=O)NCc2cccc(F)c2)oc2c1-c1[nH]ncc1CC2	-8%	-42%
COc1ccc(CNC(=O)C2CCN(C(=O)N3CCOc4ccc(Cl)cc43)CC2)cc1	?	?
Cc1cc(C)c(NC(=O)CSc2ncc3c(n2)-c2cc(Cl)ccc2N(C)S3(=O)=O)c(C)c1	-6%	?

Arranged by molecular weight (smallest number first): 14 of the compounds above
SMILES	HTT prom inh	PMP22 txn prim
Cc1c(C(=O)NCc2cccc(F)c2)oc2c1-c1[nH]ncc1CC2	-8%	-42%
CC(=O)c1ccc(-n2c(CCC(=O)O)ccc2-c2cccs2)cc1	-1%	-5%
Cc1cc(C)n2nc(CNS(=O)(=O)c3ccc(Cl)cc3)nc2n1	4%	-6%
Cc1cc2nc(-c3ccc(OCc4ccccc4C)cc3)cc(C(F)(F)F)n2n1	1%	3%
COc1ccc(-n2c(-c3ccco3)nc3c(cnn3-c3ccccc3C)c2=O)cc1	-16%	-28%
CCOC(=O)N1CCc2c(sc3c2c(=O)n(-c2ccc(CC)cc2)c(=O)n3C)C1	2%	2%
COc1ccccc1CNC(=O)C(C)n1c(=O)cc(C(F)(F)F)c2c(C)nn(C)c21 (stereo not drawn)	21%	-38%
CCOCCCNC(=O)C1CCN(c2nn3cc(-c4ccc(F)cc4)nc3s2)CC1	-10%	5%
COc1ccc(CNC(=O)C2CCN(C(=O)N3CCOc4ccc(Cl)cc43)CC2)cc1	?	?
CCCCn1c(-c2ccc(S(=O)(=O)N3CCOCC3)cc2)csc1=Nc1ccccc1	?	-18%
Cc1ccc(-c2nc(S(=O)(=O)c3ccc(C)cc3)c(SCC(=O)c3ccccc3)o2)cc1	-22%	-32%
COc1ccc(-c2nc(SCC(=O)Nc3ccc4c(c3)OCCO4)c(-c3ccccc3)[nH]2)cc1	?	?
Cc1cc(C)c(NC(=O)CSc2ncc3c(n2)-c2cc(Cl)ccc2N(C)S3(=O)=O)c(C)c1	-6%	?
CO/N=C(\C(=O)N[C@@H]1C(=O)N2C(C(=O)O)=C(CSc3nc(=O)c(O)nn3C)CS[C@H]12)c1csc(N)n1	11%	·

Further records follow.
SMILES	HTT prom inh	PMP22 txn prim
CCc1cccc(C)c1NC(=O)Cn1ccn(Cc2ccc(Cl)cc2)c(=O)c1=O	-29%	1%
Cc1nn(C(C)C(=O)NC2CCCCC2)c(=O)c2c1sc1ccccc12 (stereo not drawn)	-6%	40%
CCOC(=O)c1c(C)[nH]c(C)c1S(=O)(=O)N1CCC(C(=O)Nc2ccccn2)CC1	0%	55%
COc1cccc(C2C=C(c3ccc(C)c(C)c3)Nc3nnnn32)c1OC (stereo not drawn)	-23%	-13%
CCc1c(C)sc2c1CCN(C(=O)Nc1cc(Cl)c(OC)cc1OC)C2c1ccccc1 (stereo not drawn)	-32%	?
CCCNS(=O)(=O)Nc1ncnc(OCCOc2ncc(Br)cn2)c1-c1ccc(Br)cc1	16%	·
Cc1cccc(NC(=O)c2c(C)oc3ncnc(N4CCCCC4)c23)c1C	-16%	-18%
CCOc1ccc(C(=O)c2cn(CC(=O)Nc3ccc(OC)cc3)c3cc4c(cc3c2=O)OCO4)cc1	-2%	?
COc1ccc(NC(=O)C(=O)NCCc2csc(-c3ccc(Cl)cc3)n2)cc1	-12%	2%
CCC1CCCCN1S(=O)(=O)c1cc2c(cc1C)NC(=O)CO2 (stereo not drawn)	?	-20%
CCOC(=O)c1ccc(NC(=O)c2nsc3ccccc23)cc1	?	-16%
CCC(Oc1ccccc1F)C(=O)Nc1c(C(=O)c2ccccc2)oc2ccccc12 (stereo not drawn)	-4%	1%
COc1cc(NS(=O)(=O)c2cc3c(cc2C)n(C)c(=O)c(=O)n3C)cc(OC)c1	-3%	-28%
CCOc1ccc(NC(=O)C2CCN(c3nnc(C)c4c(C)n(-c5ccccc5)nc34)CC2)cc1	-9%	-7%
CCCCN(Cc1ccco1)C(=O)Cn1ncc2c([nH]c3ccccc32)c1=O	-12%	-25%
CCC(Cn1nnc2ccccc2c1=O)NC(=O)Nc1ccc(C)c(C)c1 (stereo not drawn)	0%	3%
CC1=C(C(=O)NCc2ccccc2C)C2(CCCCCC2)OC1=O	-2%	-3%
COc1ccccc1OC(C)C(=O)Nc1cccc(-c2nc3ccccc3s2)c1 (stereo not drawn)	8%	?
CC1C(=O)OC2C(O)C34C5CC(C(C)(C)C)C36C(OC(=O)C6O)OC4(C(=O)O5)C12O (stereo not drawn)	8%	·
COc1ccc(-c2cc(C)no2)cc1S(=O)(=O)N1CCN(c2ccccc2F)CC1	?	?
CCCCOc1ccc(C(=O)Nc2nnc3n2CCS3)cc1	-5%	?
CCN(CC)S(=O)(=O)c1ccc2c(c1)N(CC(=O)Nc1cccc(C(C)=O)c1)C(=O)CO2	-15%	-18%
COc1cccc(CNC(=O)N2CCc3c(sc4c3CCCC4)C2c2ccc(F)cc2)c1 (stereo not drawn)	?	?
Cc1cccc(CNC(=O)CCCn2c(=O)c3cccn3c3ccc(F)cc32)c1	-6%	?
Cc1ccc(-n2ncc3c(Nc4cccc(C)c4)ncnc32)cc1	67%[activator]	?
CCN(c1cc(C)cc(C)c1)S(=O)(=O)c1nnc(NC(=O)C2CCCCC2)s1	-3%	?
O=C(CCCCCCC(=O)Nc1cccnc1)NO	182%[activator]	·
COC(=O)c1ccc(NC(=O)CCNS(=O)(=O)c2cccc3nsnc23)cc1	-4%	7%
CCCSCCCNC(=O)c1ccc2c(c1)sc1nc(-c3ccc(OCC)cc3)cn12	-9%	6%
CCOC(=O)c1ccccc1NC(=O)c1cn(CC(C)C)c(=O)c2cc(OC)c(OC)cc12	0%	-3%
O=C(O)CCC(=O)OC[C@@H](NC(=O)C(Cl)Cl)[C@H](O)c1ccc([N+](=O)[O-])cc1	-5%	·
Cn1c(=O)oc2cc(S(=O)(=O)N3CCCC(C(=O)Nc4ccc(Br)cc4F)C3)ccc21 (stereo not drawn)	-17%	-4%
Oc1cccc(Nc2cc(-c3ccccc3)ncn2)c1	49%[activator]	?
COc1ccc(CCC(=O)NCCc2csc(-c3cccc(F)c3)n2)cc1	-22%	0%
COc1ccc(N2C(=O)C(CC(=O)Nc3ccccc3)N(CCC3=CCCCC3)C2=O)cc1 (stereo not drawn)	?	-6%
O=C(CSC1=Nc2ccccc2N=C(c2ccc(F)cc2)C1)Nc1ccccc1	-14%	-31%
Cc1ccc(S(=O)(=O)Cc2ccc(C(=O)NCCc3ccc(Cl)cc3)o2)cc1	-24%	-34%
CCc1cccc(NC(=O)Cn2c(=O)n(CC3CCC(C(=O)NC)CC3)c(=O)c3sccc32)c1 (stereo not drawn)	-20%	10%
Cc1nc2c(c(C)nn2-c2ccccc2)c(C)c1CCC(=O)NCCc1ccc(Cl)cc1	5%	-41%

Compound activity as filed in PubChem BioAssay.
